KCNQ2 enhance = potentiators of rat KCNQ2 potassium channel; Potassium voltage-gated channel subfamily KQT member 2 (Rattus norvegicus), O88943; 0.54% of 310,000 active; B-score at 10 µM; CHO-K1 KCNQ2, FluxOR thallium flux fluorescence; hits give high values;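 active means fluorescence ratio B-score at least 3 SD of library B-scores, with initial fluorescence B-score within 3 SD, cut at about 5.3 in these data; same plate scores as AID 2156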;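 further: B-score of peak minus minimum over baseline fluorescence ratio after K+ and Tl+ stimulus; positive B-score means potentiation of KCNQ2 with more thallium influx and brighter signal; only the inactives scoring about 0 or higher are listed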
Target sequence (O88943 whole entry, looked up): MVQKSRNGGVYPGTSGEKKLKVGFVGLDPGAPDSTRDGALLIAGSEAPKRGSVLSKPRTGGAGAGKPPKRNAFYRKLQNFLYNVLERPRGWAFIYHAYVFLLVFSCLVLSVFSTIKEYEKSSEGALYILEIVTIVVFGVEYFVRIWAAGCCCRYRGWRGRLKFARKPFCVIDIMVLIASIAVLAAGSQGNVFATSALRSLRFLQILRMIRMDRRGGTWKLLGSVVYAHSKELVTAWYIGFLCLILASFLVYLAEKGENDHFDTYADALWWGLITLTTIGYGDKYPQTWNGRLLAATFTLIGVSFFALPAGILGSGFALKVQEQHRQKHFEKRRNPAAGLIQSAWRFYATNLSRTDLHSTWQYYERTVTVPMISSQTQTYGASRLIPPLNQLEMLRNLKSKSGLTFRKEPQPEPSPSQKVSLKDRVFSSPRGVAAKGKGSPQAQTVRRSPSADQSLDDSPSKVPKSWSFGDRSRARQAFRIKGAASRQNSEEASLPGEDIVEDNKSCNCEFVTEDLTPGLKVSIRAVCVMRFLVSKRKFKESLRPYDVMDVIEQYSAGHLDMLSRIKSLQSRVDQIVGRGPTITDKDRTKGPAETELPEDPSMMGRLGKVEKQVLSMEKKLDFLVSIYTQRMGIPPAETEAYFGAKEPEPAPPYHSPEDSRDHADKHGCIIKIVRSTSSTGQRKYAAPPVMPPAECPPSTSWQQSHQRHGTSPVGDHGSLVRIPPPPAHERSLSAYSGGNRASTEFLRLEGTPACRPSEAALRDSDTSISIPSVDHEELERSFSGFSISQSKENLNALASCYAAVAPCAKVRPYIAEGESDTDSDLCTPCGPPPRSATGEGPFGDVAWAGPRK
KCNQ2 enhance baseline = further read-out of KCNQ2 enhance, marked with its call; B-score; compound at 10 µM; measured here: initial fluorescence intensity artifact check;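 brightness before thallium and not channel activity; 0 = typical well and far values either way flag optical interference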
* marks the source's active call; other numbers are inactive results.

mol	KCNQ2 enhance	KCNQ2 enhance baseline
Cc1cc([N+](=O)[O-])nn1CCCC(=O)Nc1ccc(Cl)cc1Cl	0.17	-0.88
CCOC(=O)C1=C(c2ccccc2)N(C)C(=O)NC1c1ccc(O)c(OC)c1 (centres undefined)	0.05	-0.17
CCn1c(SCc2nc(CC(=O)Nc3ccccc3OC)no2)nnc1-c1cccs1	0.53	-0.57
CCc1ccc(Nc2c([N+](=O)[O-])c(=O)oc3ccccc23)cc1	1.1	-1.2
Cc1ccc2[nH]ccc(=O)c2c1	0.03	0.02
COc1ccccc1N1CCN(C2CCCN(Cc3cccc(O)c3)C2)CC1 (centres undefined)	1.5	-0.78
Cc1cc(-c2nnc(SCC(=O)Nc3ccc(Br)cc3F)n2N)n[nH]1	0.43	0.02
CCOC(=O)c1cc2sccc2n1CC(=O)C(C)(C)C	0.62	0.25

2 compounds picked at random from those above, as already listed:
mol	KCNQ2 enhance	KCNQ2 enhance baseline
Cc1cc([N+](=O)[O-])nn1CCCC(=O)Nc1ccc(Cl)cc1Cl	0.17	-0.88
CCOC(=O)c1cc2sccc2n1CC(=O)C(C)(C)C	0.62	0.25

Continued:
mol	KCNQ2 enhance	KCNQ2 enhance baseline
Cc1nc2cc(NC(=O)c3ccc(Cl)cc3)ccc2n1C	0.67	-0.18
CCn1cc(/C=N/NC(=O)c2ccc(C#N)cc2F)c2ccccc21	2.8	-0.1
COc1cc2c(cc1NC(=O)CN1C(=O)NC3(CCc4ccccc43)C1=O)oc1ccccc12 (centres undefined)	0.75	0.59
COc1cccc(C(=O)Oc2ccc(N3C(=O)CCC3=O)c(C)c2)c1	0.76	-0.02
Cc1ccc(C2(C(F)(F)F)N=C3Sc4cc(C)ccc4N3C(=O)N2)cc1 (centres undefined)	0.38	-1.3
Cc1ccc(NC(=S)N(CCN(C)C)C(C)c2ccco2)cc1C (centres undefined)	0.14	-0.3
COc1cccc(N2CCN(Cc3nc(N)nc(Nc4ccccc4OC)n3)CC2)c1	0.87	-0.69
CCOc1ccc(CC(=O)N2CCN(c3ccc(N4CCOCC4)nn3)CC2)cc1OCC	0.57	0.38
CSCCC(NC(=O)c1ccc(Cl)cc1)C(=O)OCC(=O)N1CCCC1=O (centres undefined)	8.8*	-0.26*
CCc1ccc(OCC2c3cc(OC)c(OC)cc3CCN2C(=S)NC)cc1 (centres undefined)	0.46	1.2
Cc1cc(/C=C2/SC(=O)N(CC(=O)N3CCOCC3)C2=O)c(C)n1-c1ccccc1F	2.1	-1
COc1ccc(-c2nc3ncnn3cc2C)cc1F	0.35	-1.2
C/C=C/C(=O)OCC(=O)Nc1cccc(Br)c1	1.9	0.9
COc1ccc(-c2nc3ccc(C(=O)NCC(OC)OC)cc3nc2-c2ccc(OC)c(OC)c2)cc1OC	0.89	-1.1
COc1ccc(NC(=O)COc2ccc(/C=N/n3c(C)nnc3C)cc2OC)cc1	1.4	1.4
COc1cc(OC)c2ccc(=O)oc2c1C(CCN1CCCC1)c1ccc2c(c1)OCO2 (centres undefined)	1.2	0.27
CC(C)c1ccc(N(C(=O)c2cc3ccccc3oc2=O)C2C=CS(=O)(=O)C2)cc1 (centres undefined)	2	-0.09
Cc1[nH]n(S(=O)(=O)Cc2ccccc2)c(=O)c1N=Nc1ccccc1Cl	0.33	-0.62
O=C(CSc1nnc(CNC(=O)c2c(F)cccc2Cl)o1)NCCc1ccccc1	0.01	1.1
OC(CN1CCN(c2ncc(C(F)(F)F)cc2Cl)CC1)c1ccccc1 (centres undefined)	1.3	1.5
Cc1nc(SCC(=O)OCc2ccccc2)c2c(=O)n(C)c(=O)n(C)c2n1	0.04	0.6
COC(=O)CCCn1nc(NC(=O)c2ccco2)cc1C	0.92	-0.3
O=C(Nc1cc(F)ccc1F)N1CCN(c2ccnc3cc(Cl)ccc23)CC1	0.13	-1.5
CN1CCN(c2nc3c(c(=O)n(C)c(=O)n3C)n2Cc2ccccc2Cl)CC1	0.22	0.67
COc1cccc(NC(=O)C(C)NS(=O)(=O)c2ccc(Br)cc2)c1 (centres undefined)	0.96	-1
Cc1cc(C)nc(SCC(=O)Nc2ccccc2[N+](=O)[O-])n1	1.4	-0.16
O=C(O)c1cccc(-n2cnnn2)c1	0.05	-1.9
CCN(CC)S(=O)(=O)c1cc(NS(=O)(=O)c2cc(Cl)ccc2Cl)ccc1C	0.08	0.03
Cc1ccc(S(=O)(=O)NN/C(=N/S(=O)(=O)c2ccccc2)c2ccccc2)cc1	0.33	-0.48
Cc1cccc(C(=O)NNC(=O)c2ccccc2)c1	0.1	-0.94
O=C(C1CCCCC1)N1CCCC(c2nc3c(nnn3Cc3ccccc3)c(=O)[nH]2)C1 (centres undefined)	0.37	-0.64
CC(C)C(NC(=O)c1c(F)cccc1F)C(=O)NCCc1ccc(S(N)(=O)=O)cc1 (centres undefined)	0.54	-0.45
COc1ccccc1C(=O)N1CCN(Cc2cn[nH]c2-c2ccc(F)cc2F)CC1	1.2	0.7
CCN(CC)CCCNC(=O)c1nn(-c2ccccc2OC)c(=O)c2ccccc12	0.46	0.22
CCC(=O)Nc1cc2c(cc1C(=O)CC)OCCO2	0.61	-2.2
CC(=O)Nc1nonc1-c1nc2ccccc2n1Cc1nnc(C)o1	2	0.4
O=C(C(=O)N1CCc2ccccc2C1)c1c[nH]c2ccccc12	3.4	-0.97
NS(=O)(=O)c1ccc(CCNC(=O)CN2CCN(Cc3cccc(C(F)(F)F)c3)CC2)cc1	0.22	-0.22
CSc1nc(N(C)C)nc(N(C)C#N)n1	0.42	-0.15
NC(=O)C1(N2CCCCC2)CCN(S(=O)(=O)c2cc(Cl)ccc2Cl)CC1	0.45	2.3

7 successive compounds already listed:
mol	KCNQ2 enhance	KCNQ2 enhance baseline
Cc1cc([N+](=O)[O-])nn1CCCC(=O)Nc1ccc(Cl)cc1Cl	0.17	-0.88
CCOC(=O)C1=C(c2ccccc2)N(C)C(=O)NC1c1ccc(O)c(OC)c1 (centres undefined)	0.05	-0.17
CCn1c(SCc2nc(CC(=O)Nc3ccccc3OC)no2)nnc1-c1cccs1	0.53	-0.57
CCc1ccc(Nc2c([N+](=O)[O-])c(=O)oc3ccccc23)cc1	1.1	-1.2
Cc1ccc2[nH]ccc(=O)c2c1	0.03	0.02
COc1ccccc1N1CCN(C2CCCN(Cc3cccc(O)c3)C2)CC1 (centres undefined)	1.5	-0.78
Cc1cc(-c2nnc(SCC(=O)Nc3ccc(Br)cc3F)n2N)n[nH]1	0.43	0.02

(list continues)
mol	KCNQ2 enhance	KCNQ2 enhance baseline
COc1ccccc1-n1ccnc1SCC(=O)NC(C)(C)C	1	2.8
Cc1cnc(NC(=O)Nc2ccc(OCc3ccccc3)cc2)c(Br)c1	0.25	0.29
Oc1ccc2oc3c(c2c1C=NCc1ccncc1)CCCC3	0.09	1
O=C(NCc1cccc(Cl)c1)C1CCC(=O)N(CCN2CCOCC2)C1 (centres undefined)	0.59	-0.91
Cn1c(Cn2nnc3ccccc32)nnc1SCC(=O)N1CCc2ccccc21	0.37	-1.4
Cn1nccc1C(=O)Nc1cc(Cl)ccc1Cl	0.21	1.9
C/C(Cc1ccccc1)=N\NC(=O)c1cc(C(C)(C)C)[nH]n1	0.21	1.7
COc1ccccc1N1CCN(C(=O)c2ccc3c(c2)CCN3S(=O)(=O)c2ccccc2)CC1	0.62	0.21
CCOC(=O)C1C(=O)NC(SCC(=O)OC)=C(C#N)C1c1ccccc1OCC (centres undefined)	0.69	-0.39
Cc1ccc(-c2cc(C(=O)OCC(=O)Nc3ncc(C(F)(F)F)cc3Cl)c3ccccc3n2)cc1	1.4	-0.19
O=C(O)CSCc1cn2cc(Cl)ccc2n1	0.76	-0.95
CC(C)c1ccccc1NC(=O)COC(=O)Cc1ccsc1	0.57	-0.32
COC(=O)c1ccc(CS(=O)(=O)c2ccc(C)cc2)o1	0.38	0.42
OC(COc1ccc(CN2CCSCC2)cc1)CN1CCCCC1 (centres undefined)	0.7	0.4
Cc1ccc(C(=O)Nc2ccc3c(c2)C(=O)N(C)C3=O)c(C)c1	0.33	-0.85
O=C(C1CCCN1S(=O)(=O)c1cccc2cccnc12)N1CCc2ccccc2C1 (centres undefined)	0.36	-0.61
Cc1cc(C)nc(-n2nc(C)cc2NC(=O)c2ccc(F)cc2F)n1	0.42	-0.03
COc1cc(CNCCc2ccccc2)ccc1OCC(N)=O	1.3	0.64
Cc1ccc(S(=O)(=O)NC(=O)NC(C)c2ccc(F)cc2)cc1 (centres undefined)	2.1	1.6
CC(=O)Nc1ccc(NC(=O)CC(c2ccccc2)c2ccccc2)cc1	0.35	1.6
O=C(CN1C2CCCC1CC(NC(=O)c1ccccc1)C2)Nc1ccccc1 (centres undefined)	0.69	0.3
O=C(C1CCN(S(=O)(=O)N2CCOCC2)CC1)N1CCOCC1	2.7	-0.46
CCOc1cc([N+](=O)[O-])c2nc(N)sc2c1	0.56	-1.4
C=C1C(C(=O)Nc2ccccc2)C1C(=O)Nc1ccccc1 (centres undefined)	0.52	-0.44
O=C(CN1C(=O)COc2ccccc21)c1ccc(Cl)cc1	0.53	-1.9
COc1cccc(CNC(=O)CCN2C(=S)NC(C)(C)CC2C)c1 (centres undefined)	0.21	-1.3
O=C(CS(=O)(=O)c1c[nH]c2ccccc12)N1CCc2ccccc21	0.68	-0.58
COc1ccc(CCN2CC(C(=O)NCc3ccc(F)cc3)CC2=O)cc1OC (centres undefined)	0.19	-1.3
COc1ccc(C)cc1NC(=O)C(=O)N1CCCC1	0.21	1.9
Cc1cccc(C(=O)c2c[nH]cc2-c2ccccc2)c1	1.3	-0.56
CCCCC(=O)N1CC(=O)Nc2ccc(F)cc2C1c1ccc(F)cc1 (centres undefined)	0.67	1.5
CCC(CC)c1nnc(NC(=O)CN2C(=O)NC3(CCCC3)C2=O)s1	0.75	0.1
CCC(=O)c1c(CC)c2n3c1CC[C@H]3CCC2	1	0.62
CCOc1ccc(CCNC(=O)CS(=O)(=O)Cc2nc(-c3ccccc3F)oc2C)cc1	0.24	-0.78
C=CCOc1ccc(CNn2cn[nH]c2=S)cc1OCC	1.4	0
CS(=O)(=O)Nc1cccc(C2=NN(C(=O)CCCC(=O)O)C(c3cccs3)C2)c1 (centres undefined)	1.1	1.4
O=C(O)CCCC(=O)Nc1nc2n(n1)C(c1ccc(F)cc1)CC(c1ccc(Cl)cc1)N2 (centres undefined)	0.31	0.49
c1ccc2c(c1)OCC(c1csc3ncnc(N4CCCCC4)c13)O2 (centres undefined)	0.88	0.33
CN(C)c1cccc(C(=O)OCC(=O)Nc2nccs2)c1	0.72	0
O=C(Nc1ccccc1F)c1ccc(Cn2cc(Cl)cn2)cc1	0.95	0.39
CCOc1ccc2nc(SCC3CC3(Cl)Cl)[nH]c2c1 (centres undefined)	1.9	-0.39
CC(=O)c1c(C)nc(-c2ccc(Cl)cc2)nc1N	0.8	-0.95
O=C(CCN1C(=O)/C(=C/c2cccs2)SC1=S)Nc1ccccn1	0.81	0.02
O=C(CC1Nc2ccccc2NC1=O)Nc1cc(Cl)cc(Cl)c1 (centres undefined)	1.7	-1.6
CC(=O)c1cccc(NC(=O)Nc2ccc(C(=O)N3CCCC3)cc2)c1	0.51	2.1
CC(=O)OC1CSc2nc3ccccc3n2C1 (centres undefined)	2.3	-0.21
COc1ccc(C2OC(=O)c3ccccc3S2)cc1 (centres undefined)	0.51	-0.54
O=C(CSc1nc2ccccc2c(=O)n1-c1ccc(SC(F)F)cc1)Nc1ccc(N2CCOCC2)cc1	0.94	0.03
O=C(CSc1ncccc1C(=O)O)NC12CC3CC(CC(C3)C1)C2	0.63	1.4
O=C(NNC(=O)C1CCCN(c2ncccn2)C1)c1ccc(F)cc1 (centres undefined)	1.4	-1.4
CCOC(=O)CCSc1n[nH]c(=S)s1	0.01	0.18
CC1CCCCC1NC(=O)Cn1[nH]c(=O)c2ccccc2c1=O (centres undefined)	1.2	-1.4
COCCOC(=O)C1=C(C)NC(=O)NC1c1cccs1 (centres undefined)	0.02	0.53
CCCSc1nnc(CSc2nc3nc(C)cc(C)n3n2)o1	1.4	-0.15
O=C(CCn1ccc([N+](=O)[O-])n1)NC1CCCCCC1	0.01	-1.5
COc1cc(NC(=O)c2ccc(NC3=NC4CS(=O)(=O)CC4S3)cc2)cc(OC)c1 (centres undefined)	0.24	0.27

Following part:
mol	KCNQ2 enhance	KCNQ2 enhance baseline
O=C(N/N=C/c1ccc(N2CCOCC2)cc1)c1ccccc1OCCOc1ccccc1	0.32	-1.1
CS(=O)(=O)Nc1ccc(C(=O)NCc2ccccn2)cc1	0.01	-1.8
O=[N+]([O-])c1cc([N+](=O)[O-])c2n[nH]c(-c3ccccc3)c2c1	0.68	-0.15
Cc1cccc(-c2nnc(SCC(=O)Nc3cccc(C(=O)N4CCOCC4)c3)n2C)c1	0.64	0.1
C=CCN(C)NC(=O)Nc1ccccc1	0.27	-0.13
Cc1ccc(N2C(=O)c3ccccc3C2(O)c2ncc[nH]2)cc1 (centres undefined)	0.99	0.74

Ordered by formula weight (low to high): part of the list above.
mol	KCNQ2 enhance	KCNQ2 enhance baseline
C=CCN(C)NC(=O)Nc1ccccc1	0.27	-0.13
O=C(N/N=C/c1ccc(N2CCOCC2)cc1)c1ccccc1OCCOc1ccccc1	0.32	-1.1
Cc1cccc(-c2nnc(SCC(=O)Nc3cccc(C(=O)N4CCOCC4)c3)n2C)c1	0.64	0.1

An excerpt, so the mix of outcomes need not match the whole.
